HPGD block – inhibitors of human 15-hydroxyprostaglandin dehydrogenase (HPGD) | P15428 | purified HPGD, NADH fluorescence kinetic, PGE2 substrate | Potency, µM, without a hit: top-dose activity change, negative = inhibition, hits mostly inhibitors | actives 4.3% (n = 150,000); active = well fitted inhibition curve with a large enough effect (not every such curve was filed as active); inconclusive = small, poorly fitted or top-dose-only effect, or another doubt; inactive = no such curve, though single readings can be large or run the other way;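 further: top concentration of the series not given in the record; plate controls included wells without enzyme; inactives centre near -10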
Target sequence (P15428 whole entry, looked up): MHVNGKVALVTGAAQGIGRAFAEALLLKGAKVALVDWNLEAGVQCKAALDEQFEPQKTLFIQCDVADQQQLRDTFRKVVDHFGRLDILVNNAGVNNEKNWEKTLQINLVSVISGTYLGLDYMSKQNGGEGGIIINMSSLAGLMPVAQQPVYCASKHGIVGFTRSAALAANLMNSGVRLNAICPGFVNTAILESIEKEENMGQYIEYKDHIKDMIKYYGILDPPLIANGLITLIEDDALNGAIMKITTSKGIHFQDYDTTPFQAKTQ
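NADH formation kinetics: reaction with 30 uM PGE2 and 1 mM NAD+ (final), 20 nM enzyme, Tris-HCl pH 8 with Tween 20, after 15 min compound preincubation at room temperature. Fluorescence change, last versus first of five reads.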
* = called active by the depositor; ? = inconclusive. On the % scale 0 is the no-effect control and ±100 the full control effect; potency means the concentration at half of the fitted maximal effect. Some of the compounds tested; rates above refer to the full screens.

| structure | HPGD block |
| --- | --- |
| COc1cccc(N=C2SC(C(=O)Nc3ccccc3F)CC(=O)N2C)c1 (stereo unspecified) | -11% |
| CC(C)C(OC(=O)CN1C(=O)COc2ccccc21)C(=O)NC1CCCC1 (stereo unspecified) | ? |
| CCn1ccc(C(=O)Nc2ccc(Cl)cn2)n1 | -11% |
| CC1Cc2ccccc2N1C(=O)c1cnc2sccn2c1=O (stereo unspecified) | -19% |
| O=C(COc1ccc(S(=O)(=O)N2CCOCC2)cc1)Nc1ccc(Cl)c(C(F)(F)F)c1 | -13% |
| O=C(COC(=O)CCc1nc2ccccc2s1)Nc1ccc(Cl)cn1 | -5% |
| O=C(Nc1ccccc1)c1ccc(-c2ccc(Br)cc2)o1 | -14% |
| Nc1c(N(CCO)C(=O)COc2ccc(Cl)cc2)c(=O)[nH]c(=O)n1Cc1ccccc1 | -2% |
| O=C(c1ccccn1)N1CCN(C(=O)c2ccccn2)CC1 | -14% |
| O=C(Cn1cc2c(n1)CCCCC2)Nc1c(F)c(F)cc(F)c1F | -1% |
| Cc1nc(C(=O)Nc2cccc(Cl)c2)nn1-c1cc(OC(C)C)c(Cl)cc1Cl | -17% |
| O=C(CSc1nc2nc[nH]c2c(=O)[nH]1)NC1CCCCC1 | -13% |
| Cc1cc(NC(=O)c2ccc(NC(=O)C(C)Oc3ccccc3)cc2)no1 (stereo unspecified) | -5% |
| CN(C)CCCOC(=O)c1ccccc1Cl | -4% |
| O=C(CSCc1ccccc1)N1CCN(c2ccc(F)cc2)CC1 | -12% |
| COc1ccc(C2Nc3ccccc3C(=O)N2c2ccc(C)cc2)cc1Cn1cc([N+](=O)[O-])cn1 (stereo unspecified) | -19% |
| O=C(C1CCC1)N1CCc2cc(S(=O)(=O)Nc3ccc4c(c3)OCCO4)ccc21 | -4% |
| CCOC(=O)c1c(NC(=S)Nc2ccccc2)sc2c1CCCCC2 | -11% |
| CC(=O)Nc1nc2c(c3c1c(=O)oc1ccccc13)CC(C)CC2 (stereo unspecified) | ? |
| CNC(=O)CN1C(=O)NC2(CCc3ccccc32)C1=O (stereo unspecified) | -11% |
| NC(Cc1cc(I)c(Oc2cc(I)c(O)c(I)c2)c(I)c1)C(=O)O (stereo unspecified) | -17% |
| O=C(Nc1ccccc1)[C@@]12C[C@@H]1/C(=N/O)c1ccccc1O2 | -22% |
| CC1CC(C)CN(c2cc(=O)n(Cc3ccc(F)cc3)c(=O)[nH]2)C1 (stereo unspecified) | -15% |
| COc1cc(N2CCCC2)c(OC)cc1/C=c1/sc2nc3ccccc3n2c1=O | 0% |
| CCN(CC)C(=O)C1CC(=O)OC1(C)C (stereo unspecified) | -5% |
| O=C1CCCC2=C1C(c1c(Cl)nc3sccn13)C1=C(CCCC1=O)N2 | -4% |
| COC/C=C/C1=CC2=CC(=O)C(C)(OC(=O)c3cnc4ccccc4n3)C(=O)C2=CN1C1CC1 (stereo unspecified) | -3% |
| O=C(NC1CCCC1)C(c1cccs1)N(Cc1ccco1)C(=O)c1csnn1 (stereo unspecified) | -17% |
| C=CCNc1sc(C(=O)c2ccccc2)c(N)c1C#N | -18% |
| COc1ccc(OCc2cccc(C(=O)NN)c2)cc1 | -16% |
| CCCCOCCOCCOCCCC | -1% |
| CC(=O)Nc1ccc(OCC(O)Cn2nc(C)c(Br)c2C)cc1 (stereo unspecified) | -14% |
| Cc1ccc(S(=O)(=O)N2CCC(C(=O)Nc3nnc(C4CCCC4)s3)CC2)cc1 | -12% |
| Cn1c(=O)oc2cc(S(=O)(=O)N3CCC(C(=O)NCC4COc5ccccc5O4)CC3)ccc21 (stereo unspecified) | -19% |
| CNC(=O)CSCc1c(Cl)cccc1Cl | -17% |
| Brc1cc(Br)c(Oc2cc(Br)c(Br)cc2Br)cc1Br | -7% |
| O=C(Nc1ccc(F)cc1)c1ccccc1Oc1ccc(C(F)(F)F)cc1[N+](=O)[O-] | -5% |
| COCCn1c(-c2ccc(OC)cc2)nc2ccccc21 | -21% |
| Nc1[nH]n(-c2ccccc2)c(=O)c1N=Nc1ccccc1[N+](=O)[O-] | -1% |
| Cc1ccc(N=Nc2c(O)c(S(=O)(=O)O)cc3cc(S(=O)(=O)O)ccc23)c(C)c1 | -8% |
| COc1ccc(C(=O)N2CCN(c3ncnc4c(-c5ccccc5)nsc34)CC2)cc1 | ? |
| COc1ccc(NC(=O)N2CC3(CCN(C(=O)c4ccncc4)CC3)C2)cc1 | -3% |
| CCOc1ccc(S(=O)(=O)N/N=C(\C)C2CCCCC2)cc1 | -8% |
| O=C(Oc1cc(-c2ccccc2)no1)c1cccc(C(F)(F)F)c1 | -17% |
| CCC(=O)N(CCC(Cc1ccccc1)c1ccc2c(c1)OCO2)Cc1ccccc1F (stereo unspecified) | -10% |
| CCOc1cc(C2C(C#N)=C(N)OC(C)=C2C(C)=O)cc(Br)c1O (stereo unspecified) | -27% |
| CCNc1cc2oc(=O)c(CN3CCOCC3)c(C)c2cc1C | ? |
| O=C(O)CSc1nnc(-c2ccco2)o1 | -12% |
| Cc1ccccc1NS(=O)(=O)c1ccc(OCC(=O)NCc2ccco2)cc1 | -7% |
| O=C(COc1ccc(/C=N/NC(=O)C(=O)N2CCCCCC2)cc1)Nc1ccccc1Cl | ? |

The list goes on:
| structure | HPGD block |
| --- | --- |
| CSc1ccccc1NC(=O)CN(C)CC(=O)Nc1cc(C)ccc1C | -7% |
| Cc1nc(C#N)c(N/N=C/c2cccc(Cl)c2)o1 | -22% |
| COP(=O)(/C=C/c1ccccc1)C(O)c1ccc(F)cc1 (stereo unspecified) | -2% |
| Cc1cc(N2C(=O)C(O)=C(C(=O)c3ccc(C)o3)C2c2cccs2)no1 (stereo unspecified) | 28µM* |
| O=C(CN1CCCC1)Nc1ccc(-c2nc3cc(NC(=O)CN4CCCC4)ccc3o2)cc1 | ? |
| O=S(=O)(c1ccc(Cl)s1)N1CCC(Cc2ccccc2)CC1 | -18% |
| CCN1/C(=C2\C(=O)N(C)C(=S)N2C)C=Cc2cc(C)ccc21 | -8% |
| CCN1CCN(C(=O)c2cn(CC)c3ccc(S(=O)(=O)N(C)C)cc3c2=O)CC1 | -23% |
| CCOc1ccc(OCC)c(NC(=O)CN2CCN(CC)CC2)c1 | 4% |
| CCOC(=O)C1=C(C)c2ccccc2N(C(=O)OC)C1(C)C(=O)OCC (stereo unspecified) | ? |
| Cc1ccc(-c2[nH]nc(N)c2N=Nc2cccc(Cl)c2C)cc1 | -12% |
| CCC(/C=N/NC(=O)CCCCC(=O)N/N=C/C(CC)CC)CC | 1% |
| CC1CCC2CC1C2(C)C (stereo unspecified) | -4% |
| CCCOc1ccc(CSCCNC(=S)Nc2ccccc2)cc1 | -21% |
| CCOc1ccccc1OCCn1nnc2ccccc21 | -7% |
| CCOC(=O)C(/C(N)=N/C(=O)Nc1ccccc1)=C(\C)O | -10% |
| COc1cccc(/C=C/C(=O)c2ccc[nH]2)c1 | ? |
| C/C(CC(=O)Nc1cccc2c1CCCC2)=N\NC(=O)COc1ccccc1 | -15% |
| COc1cccc([C@@H]2Oc3ccc(Br)cc3C[C@H]2OC(=O)Nc2ccc(C)c(Br)c2)c1 | -15% |
| Cc1c(C(=O)N2CCCCCC2)nnn1-c1nonc1N | 32µM* |

The listing continues.
structure	HPGD block
CNc1oc(Cc2ccccc2)nc1S(=O)(=O)c1ccc(Cl)cc1	-2%
CCN1C(=O)N(CC)C(O)(c2ccccc2)C1(O)c1ccccc1 (stereo unspecified)	-7%
CCC(=O)c1ccc(OCC(O)CN2CCN(c3ccc(F)cc3)CC2)cc1 (stereo unspecified)	-3%
CN=C(c1ccccc1)c1c(C)cccc1C	-9%
CCn1c(Cc2ccc(OC)cc2)nnc1SCC(=O)N1CCN(c2ccccc2)CC1	-4%
COc1ccc(C(=O)c2ccccc2O)c(O)c1	0.5µM*
O=C(CSc1nnc(Nc2ccccc2)s1)Nc1cccc(S(=O)(=O)N2CCCCC2)c1	-16%
O=C(O)c1ccc(N2CCCCC2)cc1	-14%
Cc1c(C(=O)NCC2COc3ccccc3O2)oc2ccc(S(=O)(=O)N3CC(C)CC(C)C3)cc12 (stereo unspecified)	-26%
O=C(Nn1c(=O)[nH]c2ccccc2c1=O)c1ccco1	-6%
CC(C)[C@H](NC(=O)Nc1ccc(S(N)(=O)=O)cc1)C(=O)O	0%
N/C(=N\OC(=O)c1ccc2ccccc2c1)c1cccc([N+](=O)[O-])c1	-6%
Cc1ccc(-c2noc(CSc3nnc(CCc4ccccc4)n3-c3ccccc3)n2)cc1	-20%
CC(/C=C/c1ccc2c(c1)OCO2)=N/NC(=O)C1COc2ccccc2O1 (stereo unspecified)	-13%
COC(=O)CNC(=O)CN1c2cccc3cccc(c23)S1(=O)=O	-23%
O=C(Nc1ccc(CN2CCOCC2)cc1)c1cc2ccccn2n1	-15%
Cc1cc(SCCC(=O)O)nc2ccccc12	-21%
COc1ccc(CNC(=O)c2cccnc2Sc2ccc(Cl)cc2)cc1	-8%
CCOc1ccc(Cl)cc1S(=O)(=O)n1nnc2ccccc21	-14%
Cc1ccc(Oc2cc(N3CCOCC3)nc(-c3ccccc3)n2)cc1	-25%

Fetched one by one from the list above, 6 records:
structure	HPGD block
COC(=O)CNC(=O)CN1c2cccc3cccc(c23)S1(=O)=O	-23%
Cc1ccc(Oc2cc(N3CCOCC3)nc(-c3ccccc3)n2)cc1	-25%
CCOc1ccc(Cl)cc1S(=O)(=O)n1nnc2ccccc21	-14%
COc1ccc(CNC(=O)c2cccnc2Sc2ccc(Cl)cc2)cc1	-8%
CC(/C=C/c1ccc2c(c1)OCO2)=N/NC(=O)C1COc2ccccc2O1 (stereo unspecified)	-13%
CC(C)[C@H](NC(=O)Nc1ccc(S(N)(=O)=O)cc1)C(=O)O	0%

Additional records follow.
structure	HPGD block
Cc1nnc(SCC(=O)Nc2ccc(N3CCOCC3)cc2)o1	-8%
c1ccc(-c2cn3nc(-c4ccccc4)cnc3n2)cc1	-11%
CC(C)(C)NC(=O)C(c1ccsc1)N(CCc1ccccc1)C(=O)Cn1nnc2ccccc21 (stereo unspecified)	-4%
COc1ccc(C(=O)NC(CC(C)C)C(=O)O)cc1OC (stereo unspecified)	-14%
COCCCNC(=O)c1ccc(-n2nc(C(F)(F)F)cc2-c2cccs2)cc1	14µM*
C=CCn1c(N)c(C(=O)NCc2cccnc2)sc1=S	-10%
COC(=O)CSc1nnc(-c2sc3ccccc3c2Cl)o1	?
CNc1nc(Oc2ccccc2C(=O)OC)nc(SC)n1	-4%
O=C(COC(=O)c1ccc2ccccc2n1)Nc1ncc(C(F)(F)F)cc1Cl	-4%
CCCCCOc1ccc(/C=c2\sc3ncnn3c2=O)cc1	-25%
O=S(=O)(CCOc1ccccc1)c1nc2ccccc2[nH]1	-16%
Cn1c(=N)n(CC(O)c2ccccc2)c2ccccc21 (stereo unspecified)	-5%
CCSc1nnc2n(N)c(=O)c3ccccc3n12	0%
COCCCn1c(Cc2csc(Nc3ccc(F)cc3)n2)nnc1SCC(N)=O	-9%
COc1ccccc1C(=O)N1CCN(c2ccccn2)CC1	-20%
CCOC(=O)c1ccc(NC(=O)c2ccc(CN3CCOCC3)cc2)cc1	-6%
Cc1cccc(OP(=O)(Nc2c(C)n(C)n(-c3ccccc3)c2=O)Oc2cccc(C)c2)c1	0%
O=C(CSCc1c(F)cccc1Cl)NCc1ccco1	14µM*
Cn1c(SCC(=O)NC2CC2)nnc1-c1cccc(NC(=O)c2ccccc2F)c1	-3%
CCc1ccccc1NC(=O)CSC1=C(C#N)C(c2ccc3c(c2)OCO3)C2=C(CCCC2=O)N1 (stereo unspecified)	-20%
Cc1cc(C)c2cc(C#N)c(N3CCCC3)nc2c1	-23%
CCOC(=O)C1=C(C)N(C)C(=O)NC1c1c(C)nn(-c2ccc(C)cc2)c1Cl (stereo unspecified)	-10%
O=C(CN(Cc1ccco1)C(=O)c1ccc(Cl)cc1)Nc1ccc(Cl)c(Cl)c1	-10%
O=C(O)/C(=C/c1ccco1)NC(=O)c1ccccc1	-8%
CC1=NN(c2nc(-c3ccc(Cl)cc3)cs2)C(=O)C1	-19%
Cc1cc(C)nc(Sc2ncnc3sc4c(c23)CCC4)n1	?
O=C(Nc1ccccc1Cl)N1CCN(c2ccc3nncn3n2)CC1	-1%
O=C(Nc1ccccn1)c1cccnc1	-4%
Cc1cccc(C)c1OCC(=O)Nc1nnc(C2CCCO2)s1 (stereo unspecified)	-15%
Cc1c(N(C)C(=O)C23CC4CC(CC(C4)C2)C3)c(=O)n(-c2ccccc2)n1C	-5%
COC(=O)c1ccc(C(=O)OC)c(NC(=O)CN2CCN(c3ccccc3)CC2)c1	-9%
CC(=O)NC1=C(OS(=O)(=O)c2ccc(C)cc2)CN(C)C1=O	-6%
COC(=O)c1sccc1NC(=O)c1ccc(Br)s1	-18%
CN(C)C(N)=NCCC[C@H](N)C(=O)O	-2%
O=C(OC(C(=O)NC1CCCC1)c1ccccc1F)c1ccco1 (stereo unspecified)	-8%
CC(C)(C)c1ccc(C(=O)N2CCCN(C(=O)c3ccc(C(C)(C)C)cc3)CC2)cc1	-10%
CCN(C(=O)Nc1ccccc1)c1ccccc1	-14%
O=C1C2CCCN2C(=O)N1CCN1CCN(c2ccccc2)CC1 (stereo unspecified)	0%
Cc1cc(NC(=O)CCCOc2ccc(Cl)cc2Cl)no1	-10%

4 of these compounds in a different format.
O=C(CSc1nnc(Nc2ccccc2)s1)Nc1cccc(S(=O)(=O)N2CCCCC2)c1
- HPGD block: -16%

O=C(Nc1ccc(CN2CCOCC2)cc1)c1cc2ccccn2n1
- HPGD block: -15%

CN(C)CCCOC(=O)c1ccccc1Cl
- HPGD block: -4%

Cc1cc(SCCC(=O)O)nc2ccccc12
- HPGD block: -21%

High-throughput results (PubChem)
